# Sa ugtP lethal: growth inhibition of S. aureus ugtP deletion strain | S. aureus RN4220 ugtP deletion, OD600 growth, 16 h; some inactives read as strong as hits | growth inhibition, % (no concentration beside the values) | 330,000 compounds, 0.54% hits | AID 1259309;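 active = z-score under -3 and OD600 up to 0.15 on both plates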;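 note: plate controls were untreated wells for no effect and antibiotic for full effect; wells of about 80 µL received 100 nL stock; the first replicate is given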
# PrP 5UTR inh: suppresses PrP 5' UTR mRNA reporter expression | cell-based PrP 5' UTR mRNA reporter, plate reader | inhibition, % (test concentration not listed) | 340,000 compounds, 0.35% hits;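 active = every replicate at 50% or more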;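 note: 0 = median of the neutral control wells; tested in H4 reporter cells; numbers are from one replicate; inactives centre near -14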
# Sa RN4220 lethal: S. aureus RN4220 growth inhibition; OD600, 16 h; 330,000 compounds, 0.33% hits; inhibition, % (test concentration not listed);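 active = z-score of -3 or lower and OD600 up to 0.18 on both plates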;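 note: plate controls were untreated cells for no effect and reference antibiotic for full effect; stock transfer was 100 nL into about 80 µL; one replicate is shown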
# Mtb hypoxia inh: Mtb hypoxia fluorescent reporter inhibition. 300,000 compounds, 0.1% hits. fluorescence inhibition, % (test concentration not listed). M. tuberculosis hypoxia-regulated fluorescent reporter, fluorescence;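 active = 35 to 45% if threefold the growth effect, above 45% if 1.5-fold the growth effect; inactive = the rest, general growth blockers included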;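 note: wells of about 50 µL received 100 nL stock; 0% = vehicle wells and 100% = reference inhibitor wells; whole bacteria with a GFP reporter of the hypoxia response; strong numbers were not always called active; many hits fall short of the cut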
# Bead autofluor: flagged as autofluorescent in microsphere protease counterscreen | 360,000 compounds, 3.1% hits | compound autofluorescence counterscreen, microsphere flow cytometry; active compounds read high | fluorescence intensity (test concentration not listed);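 active = at least 3 SD above the mean of all compounds, about 16000 in these data; inconclusive = too few beads counted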;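 note: 100 nL of 1 mM stock went into each well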
# BJeLR lethal: BJeLR cell viability loss. inhibition, % (concentration not given with the values). BJeLR (HRASV12) viability, CellTiter-Glo ATP luminescence, 48 h; reference of the scale not given here. AID 1554. 300,000 compounds, 0.17% hits;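 active = replicate mean above 50%; inconclusive = above 50% but judged a plate artefact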;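 note: 50 nL library stock added to about 25 µL; numbers are from one replicate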
# Mtb hypoxia inh growth: second read-out of Mtb hypoxia inh, no call of its own (marks repeat the call); growth inhibition, %; measured here: M. tuberculosis growth (absorbance);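 0% = vehicle and 100% = reference antibiotic; read after six days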
# The depositor's hits bear a star; ? = inconclusive; / = no result given; & = joins results of further samples.
SMILES,Sa ugtP lethal,PrP 5UTR inh,Sa RN4220 lethal,Mtb hypoxia inh,Mtb hypoxia inh growth,Bead autofluor,BJeLR lethal
Cc1noc(C)c1CSc1ncnc2sc3c(c12)CCCCC3,5,10,6.6,15,3,2503,-13
CC(C)(C)N1NC(=O)Nc2ccccc2C1=O,9,-5,3.4,/,/,2830,22
Cc1cccc(NC(=O)c2ccc(Cl)nc2)n1,5,-33,1.1,13,0,5728,6
CCOC(=O)N1CC=C2C(C#N)=C(N)C(C#N)(C#N)[C@H](c3ccc(OCC)c(OCC)c3)[C@H]2C1,-6,-40,4.9,-1,6,20898*,2
COc1cccc(OCCNC(=O)c2cc([N+](=O)[O-])cc([N+](=O)[O-])c2)c1,0,12,24,/,/,4765,6
CC(C)(C)OC(=O)[C@H](Cc1ccccc1)NC(=O)c1nc[nH]c1C(=O)NC1CCN(C(=O)OC(C)(C)C)CC1,/,-12,/,/,/,3868,6
Cc1cc(Oc2ccccc2)nc(SCC(N)=O)n1,10,-9,7.8,5,-3,3460,-8
Cc1cc(NC(=O)Nc2cccc([N+](=O)[O-])c2)no1,-2,-9,15,4,10,4595,3
O=c1sc2ccccc2c(N2CCOCC2)c1[N+](=O)[O-],9,-27,3.6,2,3,3552,-2
CC(=O)c1cccc(S(=O)(=O)N(Cc2cc3cc4c(cc3[nH]c2=O)OCCO4)CC2CCCO2)c1 (stereo not drawn),-2,-14,7.9,9,2,8511,-4
COc1cc(/C=N/Nc2ccccc2[N+](=O)[O-])ccc1OC(=O)c1ccccc1F,/,-60,/,/,/,2356,7
COC(CC1OC1C(O)C(C)OCc1ccccc1)OC (stereo not drawn),5&1&4&3&-4&1&1&-4&0&-2&1,/,7.1&4.1&3.7&7.0&1.1&3.7&5.1&4.8&1.5&1.9&1.6,4&12&11&22&8&0&3&9&12&14&9,1&8&13&3&14&4&10&9&-2&3&7,/,/
O=C(CNCc1ccccc1Cl)Nc1cc(S(=O)(=O)N2CCOCC2)ccc1Cl,14,8,6.2,4,-2,3032,/
CN(c1cccc(NS(=O)(=O)c2cccc([N+](=O)[O-])c2)c1)S(C)(=O)=O,-1,1,10,-2,6,3736,4
CCS(=O)(=O)N1CCC(C(=O)NCc2cccnc2)CC1,3,-15,4.3,10,15,5958,7
Cc1nc2cc(NC(=O)CCS(=O)(=O)c3ccccc3)ccc2s1,-14,-77,-3.7,2,5,2388,4
CCc1ccc(N2CC(C(=O)NC3=NCCS3)CC2=O)cc1 (stereo not drawn),5,-25,1.8,3,1,4382,-9
COc1ccc(S(=O)(=O)Nc2cccc(S(=O)(=O)N3CCCCCC3)c2)cc1,12,4,11,9,5,2429,8
O=C(NNc1ccc([N+](=O)[O-])cc1)C1CC1c1ccccc1 (stereo not drawn),-5,-27,0.7,11,0,2512,6
CC(=O)Nc1nc2cccc([N+](=O)[O-])c2s1,/,-34,/,/,/,3414,4

# Copied from the list.
# Under Mtb hypoxia inh, COc1ccc(S(=O)(=O)Nc2cccc(S(=O)(=O)N3CCCCCC3)c2)cc1 shows 9
# Under Sa RN4220 lethal, CN(c1cccc(NS(=O)(=O)c2cccc([N+](=O)[O-])c2)c1)S(C)(=O)=O shows 10

# Next section
SMILES,Sa ugtP lethal,PrP 5UTR inh,Sa RN4220 lethal,Mtb hypoxia inh,Mtb hypoxia inh growth,Bead autofluor,BJeLR lethal
CCCC(=O)N1c2ccccc2C(=C2SC(C(=O)OC)=C(C(=O)OC)S2)C(=S)C1(C)C,14,-2,-0.9,12,6,/,4
CC(C)OCCCNC(=S)N1CCC(C(=O)c2ccc(Cl)cc2)CC1,4,-5,0.0,-9,-5,/,-15
O=C(O)c1cc(-c2cccnc2)nn1-c1ccccn1,5,-5,1.1,/,/,4239,5
COC(=O)[C@]1(C)N[C@H](CN(C)C(C)=O)[C@@H]2C(=O)N(C)C(=O)[C@@H]21,1,-11,-0.4,3,4,4007,/
COC(=O)c1ccc2c(c1)N(Cc1ccccc1F)C(=O)c1ccccc1S2=O (stereo not drawn),-3,-4,1.8,/,/,4517,-4
CN(CCCNC(=O)CSc1cc(=O)n(C)c2ccc(Cl)cc12)Cc1ccccc1,1,-11,3.4,-3,2,2096,1
CCOC(=O)c1sc(NC(=O)CSc2nnnn2-c2ccc(C)c(C)c2)nc1C,23,-21,29,2,1,3310,-5
Cc1cc(C)n(CC(=O)N2CCCC(N3CCN(c4cccc(C(F)(F)F)c4)CC3)C2)n1 (stereo not drawn),8,-16,2.2,9,-6,4057,3
CC(CNC(=O)C1CCCN(S(=O)(=O)N2CCOCC2)C1)c1ccccc1 (stereo not drawn),0,-18,-1.3,3,-2,4569,0
CN1C(=O)N(C)C(=O)C2(Cc3c(ccc4ccccc34)N(C)C2)C1=O,5,-1,0.9,-2,-3,3049,-2
Cc1cccc(OCc2nnc(SCC(=O)N(C(C)C)C(C)C)n2Cc2ccco2)c1C,-2,13,0.2,-2,-4,16236*,-4
COc1ccccc1NS(=O)(=O)c1cc2c(cc1C)NC(=O)CO2,-7,-5,-9.6,12,8,5954,13
CCCOc1cc(C)nc(-c2ccccc2O)n1,13,-7,2.0,-2,5,2820,-10
Cc1cc(C=O)c(C)n1-c1ccc2c(c1)OCO2,2,-34,5.9,10,15,4525,4
O=c1ccc(Oc2nc(N3CCOCC3)nc(N3CCOCC3)n2)n[nH]1,-3,-13,4.3,3,9,2486,-2
CCOc1ccc2[nH]c(S(=O)(=O)CC)nc2c1Cl,3,-3,1.0,/,/,4594,-13
CC(=O)c1c(N)[nH]c(-c2ccccc2)nc1=S,-4,-22,-7.4,/,/,2450,-1
CC(C)(C)C1COC(=O)C(Cc2ccc(F)cc2)CCC=CCC(CC(=O)N(CCO)Cc2ccccc2)C(=O)N1 (stereo not drawn),3&12&-13,/,-0.4&2.4&1.8,2&12&-9,10&5&3,/,/
Cc1nc(CCNC(=O)CC2C(=O)NCCN2Cc2ccoc2)nc2c1CCCC2 (stereo not drawn),4,-2,-0.5,1,-1,2062,-5
COc1ccc(C(=O)N/C(=C\c2cn(C)c3ccccc23)C(=O)OCC(C)C)cc1,10,-9,6.8,14,-5,8928,-9
CCCS(=O)(=O)N1CCCC(C(=O)N2CCOCC2)C1 (stereo not drawn),-1,-10,5.7,4,3,2810,0
CC(ON=Cc1ccc(OC(F)F)cc1)C(=O)Nc1cccc(S(=O)(=O)N2CCOCC2)c1 (stereo not drawn),1,/,1.3,9,1,/,/
CCOC(=O)C1(C/C(C)=N/NC(N)=O)CC(C)OC1=O (stereo not drawn),/,-30,/,/,/,2210,-6
Cn1cnnc1SCC(=O)NCCC(c1ccccc1)c1ccccc1,/,-30,/,/,/,2429,3
CCOc1ccccc1N1CCN(C(=O)CCNS(=O)(=O)c2ccccc2F)CC1,6,-19,2.5,4,16,4596,-4
O=C1CC(N2CCN(C3CC(=O)N(CCc4ccccc4)C3=O)CC2)C(=O)N1CCc1ccccc1 (stereo not drawn),-1,-6,1.6,-7,8,9166,0
CCCNC(=O)CSc1nnc(-c2ccco2)n1C,14,-7,1.7,10,4,3601,/
COCc1cc([C@@H]2C[C@H]3CN(c4ccccc4)C(=O)[C@]34CCCN24)ccc1OC,8,-4,-1.3,-5,3,8751,-2
Cc1cc(Cl)ccc1NC(=O)CCN1C(=O)C2CCCCC2C1=O (stereo not drawn),2,-8,6.8,12,8,?,/
CCOCCCNC(=O)C1CCN(c2cc(C)nc3c(-c4ccc(OC)c(OC)c4)c(C)nn23)CC1,0,-24,1.6,4,3,4285,5

# A run of entries of the results above:
SMILES,Sa ugtP lethal,PrP 5UTR inh,Sa RN4220 lethal,Mtb hypoxia inh,Mtb hypoxia inh growth,Bead autofluor,BJeLR lethal
O=C1CC(N2CCN(C3CC(=O)N(CCc4ccccc4)C3=O)CC2)C(=O)N1CCc1ccccc1 (stereo not drawn),-1,-6,1.6,-7,8,9166,0
CCCNC(=O)CSc1nnc(-c2ccco2)n1C,14,-7,1.7,10,4,3601,/
COCc1cc([C@@H]2C[C@H]3CN(c4ccccc4)C(=O)[C@]34CCCN24)ccc1OC,8,-4,-1.3,-5,3,8751,-2
Cc1cc(Cl)ccc1NC(=O)CCN1C(=O)C2CCCCC2C1=O (stereo not drawn),2,-8,6.8,12,8,?,/
CCOCCCNC(=O)C1CCN(c2cc(C)nc3c(-c4ccc(OC)c(OC)c4)c(C)nn23)CC1,0,-24,1.6,4,3,4285,5

# The list goes on:
SMILES,Sa ugtP lethal,PrP 5UTR inh,Sa RN4220 lethal,Mtb hypoxia inh,Mtb hypoxia inh growth,Bead autofluor,BJeLR lethal
COC(=O)CCC(=O)Nc1ccc(N=Nc2ccccc2)cc1,17,-33,5.2,-8,-5,3088,-9
Clc1ncnc2c1oc1ccccc12,-3,-77,4.7,10,25,4242,-11
Cn1c(SCC(=O)c2ccc(F)cc2)nnc1-c1ccccc1N,0,-17,2.6,1,0,2875,2
O=C(NC1CCCC1)c1ccc2c(c1)N(Cc1ccccc1)CCS2,12,-14,2.6,1,-6,4142,11
CCOC(=O)Nc1ccc2c(CN3CCN(S(=O)(=O)c4ccccc4)CC3)cc(=O)oc2c1,6,-7,4.8,7,7,3270,-5
Cc1cccc(NC(=S)NCCO)c1C,1,-25,1.5,17,5,2118,-18
Nc1ncnc2c1ncn2C1OC(COP(=O)(O)O)C(O)C1O (stereo not drawn),-1&-1,8,3.1&3.8,4&2,2&-4,5643,2
COc1ccc(OC)c(NC(=O)Cc2ccc(NC3=NC4CS(=O)(=O)CC4S3)cc2)c1 (stereo not drawn),-3,-7,-11,3,12,5578,0
Clc1ccc(OCCSCc2nc3ccccc3[nH]2)cc1,1,-4,-0.6,-17,-7,5083,6
Cc1ccc(CCNC(=O)CCS(=O)(=O)c2cc3c(cc2C)NC(=O)CO3)cc1,-3,-4,-12,5,-1,5146,3
CCOC(=O)c1sc(NC(=O)CCCCCN2C(=O)c3cccc4cccc(c34)C2=O)nc1C,-14,-22,9.9,-2,2,6013,/
COC(=O)CCC(=O)OC1(C)C(=O)C=C2C=C3CCCN3C=C2C1=O (stereo not drawn),-9,-21,2.5,6,6,4030,-9
Cc1cccc(-c2ncc(CN3CCCC(CO)(Cc4ccccc4C)C3)cn2)c1 (stereo not drawn),6,-10,-2.9,6,5,13225,-7
Cc1ccccc1CC(=O)Nc1cc(C(C)(C)C)on1,7,-23,1.4,5,7,4309,8
CCOc1ncccc1C(=O)N(CC)CC(=O)NCc1ccc(Cl)cc1,6,-18,2.5,13,0,3864,3
O=C(NCCC(=O)N1CCC2(CC1)NCCc1[nH]cnc12)c1cccc(Cl)c1,9,-31,0.6,6,6,6435,13
COC(=O)c1sc(NC(=O)CSc2nnnn2-c2cccc(OC)c2)nc1C,12,-32,1.5,/,/,2759,-1
O=C(NC(N1CCOCC1)C(Cl)(Cl)Cl)c1ccc(Br)cc1 (stereo not drawn),3,-22,1.2,2,18,3374,1
CC(=O)c1cccc(Nc2cc(C)nc3c(C)cc(C)cc23)c1,0,-8,-1.6,-6,4,2734,5
CSc1nc(N2CCOCC2)c2c3c(sc2n1)CCCC3,4,-17,2.2,/,/,4444,-7
CCN(C(=O)C1CCN(S(=O)(=O)c2cccc3nonc23)CC1)c1ccccc1,3,-6,6.0,5,9,6732,-6
COC(=O)c1ccc(CN2CCc3ccccc32)cc1,5,-21,1.4,9,2,/,10
CCC(C)C(CNC(C)CNC)NCCC(c1ccccc1)c1ccccc1 (stereo not drawn),1,/,-1.2,12,4,/,/
COc1ccc(CC(=O)O/N=C(\N)Cc2cccc3ccccc23)cc1OC,/,1,/,/,/,2306,-6
Cc1ccc(N(Cc2cc3ccccc3[nH]c2=O)S(=O)(=O)c2ccccc2)cc1,1,-3,3.9,6,1,2081,0
CN(C(=O)CN(CCO)CC(=O)N(C)C(C)(C)Cc1ccccc1)C(C)(C)Cc1ccccc1,-2,-6,-2.6,2,10,5900,/
COCCNCc1ccc(C(C)C)cc1,8,-11,7.5,11,0,2497,12
CCOC(=O)NN=C(c1ccccc1)C1CCCCC1,-2,/,-3.3,-13,-5,/,/
Cc1ccc(OS(=O)(=O)c2ccc(-c3csc(C)n3)s2)c(C)c1,40,-13,9.1,3,10,6222,4
C=CCN1C(=O)NC(c2ccccc2)(C(F)(F)F)S/C1=C(\C#N)c1nnc(N2CCOCC2)n1-c1ccccc1 (stereo not drawn),/,-9,/,/,/,2013,-4
O=S(=O)(NCc1ccccc1Br)c1cccs1,9,-2,14,8,-6,15255,-5
OC(CN1CC=C(c2ccccc2)CC1)c1ccccc1 (stereo not drawn),13,-6,-2.6,7,3,6068,-11
Nc1nnnn1/N=C/c1cccc(Oc2ccccc2)c1,/,-14,/,/,/,10625,-1
COC(=O)c1ccc(OS(=O)(=O)N(C)C)cc1,1,-30,3.7,9,5,2517,-4
